# Cruzain inh Det = blocks cruzain activity in presence of Triton detergent; hit rate 0.43% among 200,000; Potency, µM, inactives show max response, negative = inhibition, usual class: inhibitors; AID 1478; purified cruzain, Z-FR-AMC fluorescence, 0.01% Triton; P25779; active means well fitted curve in the direction sought with a large enough effect; inconclusive means small, poorly fitted or top-dose-only effect, or another doubt; inactive means no such curve, though single readings can be large; an effect the other way counts as inactive or inconclusive;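 further: plate controls were neutral wells for no effect and buffer without enzyme for full effect; nearly all actives have a fitted effect of over 40% in size; top concentration of the series not given in the record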
# Target sequence (P25779 123-467 limits assumed): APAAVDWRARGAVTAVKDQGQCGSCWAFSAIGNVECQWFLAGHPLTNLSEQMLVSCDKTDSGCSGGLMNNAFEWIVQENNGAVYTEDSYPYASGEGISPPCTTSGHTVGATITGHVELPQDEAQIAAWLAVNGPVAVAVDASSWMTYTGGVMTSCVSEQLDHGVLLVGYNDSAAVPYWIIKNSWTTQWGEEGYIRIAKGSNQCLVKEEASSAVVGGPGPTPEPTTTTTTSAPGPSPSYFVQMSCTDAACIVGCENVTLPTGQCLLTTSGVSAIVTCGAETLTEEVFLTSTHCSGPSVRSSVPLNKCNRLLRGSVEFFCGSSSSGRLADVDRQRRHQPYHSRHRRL
#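 Purified cruzain (1.5 nM final) was preincubated with compounds for 15 min at room temperature in 100 mM sodium acetate pH 5.5, 5 mM DTT, 0.01% Triton X-100. Reaction started with 2 uM Z-FR-AMC; AMC fluorescence change over 60 s gave activity.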
# Lassa entry inh = inhibitors of Lassa virus binding or cell entry; hit rate 1.2% among 300,000; Potency, µM (titrated, usually from 37.9 µM), inactives show top-dose activity change, negative = inhibition, most hits filed as inhibitors; AID 540256; Lassa virus pseudotype entry inhibition, cell reporter; control for the full effect not named in the record; active means well fitted inhibition curve with a large enough effect; inconclusive means small, poorly fitted or top-dose-only effect, or effect the other way; inactive means flat fitted curve, though single readings scatter; tested in HEK293 cells; further: on the % scale 0 is the no-effect control and ±100 the full control effect; nearly all actives have a fitted effect of over 50% in size; luciferase read-out
# RE007 growth inh = less growth of the S. pombe RE007 Vpr strain | S. pombe RE007 Vpr strain, BacTiter-Glo ATP luminescence, 24 h; control for the full effect not named in the record | Potency, µM (doses to about 92.2 µM), without a hit: at the top dose activity change, negative = less growth | hit rate 0.21% among 360,000 | AID 651644; active = well fitted falling curve with a large enough effect; inconclusive = small, poorly fitted or top-dose-only effect; inactive = no such curve, though single readings can be large or run the other way;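 further: on the % scale 0 is the no-effect control and ±100 the full control effect; nearly all actives have a fitted effect of over 50% in size; the assay follows cell death caused by Vpr and the record does not say whether a fall means rescue or toxicity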
#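 Fission yeast strain RE007, carrying one chromosomally integrated HIV-1 vpr copy, was seeded at OD 0.01 in PMG+AL medium with 23 nL pinned compound. After 24 h at 30 °C and 99% humidity, viability was read by BacTiter-Glo luminescence.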
# SARS PLP yeast = inhibitors of SARS-CoV papain-like protease in yeast; hit rate 0.19% among 330,000; Potency, µM (series often up to 32.9 µM), inactives show at the highest dose activity, positive = growth rescue; S. cerevisiae expressing SARS-CoV PLpro, growth rescue; control for the full effect not named in the record; further: 0% is about no effect; nearly all actives have a fitted effect of over 55% in size; growth read by luminescence after 48 h
# StopGo reporter = FMDV 2A StopGo reporter, luciferase signal. human cells with a luciferase reporter of 2A StopGo recoding; control for the full effect not named in the record. Potency, µM (doses to about 57.9 µM), inactives show top-dose signal change, negative = less light. hit rate 1.2% among 410,000. AID 1159524; active = well fitted falling curve with a large enough effect; inconclusive = small, poorly fitted or top-dose-only effect; inactive = no such curve, though single readings can be large or run the other way; tested in HEK293T cells; further: on the % scale 0 is the no-effect control and ±100 the full control effect; nearly all actives have a fitted effect of over 45% in size; luciferase light after 4 h
# NS1 inh = inhibitors of influenza NS1 protein function; S. cerevisiae slowed by influenza A NS1, growth recovery by OD600; Potency, µM (highest dose often 46.1 µM), without a hit: at the highest dose activity, positive = more growth; hit rate 0.4% among 270,000; further: actives are rising curves; nearly all actives have a fitted effect of over 50% in size
#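 A cell-based growth assay was used: compounds that relieve NS1-induced slow growth of budding yeast raise OD600. Assay medium was yeast nitrogen base with ammonium sulphate and -URA supplement, pH 6.0, with 2% galactose.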
# Cruzain noTriton = inhibitors of Trypanosoma cruzi cruzain without detergent; P25779; Potency, µM, for inactives: max response, negative = inhibition, hits mostly inhibitors; AID 1476; hit rate 2.3% among 200,000; purified cruzain, Z-FR-AMC fluorescence, no detergent; active means well fitted curve in the direction sought with a large enough effect; inconclusive means small, poorly fitted or top-dose-only effect, or another doubt; inactive means no such curve, though single readings can be large; an effect the other way counts as inactive or inconclusive;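 further: plate controls were enzyme without inhibitor for no effect and buffer without enzyme for full effect; nearly all actives have a fitted effect of over 40% in size; top concentration of the series not given in the record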
#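 Detergent-free condition (0.00005% Triton X-100) in acetate buffer pH 5.5 with DTT. 1.5 nM enzyme and compound were pre-mixed 15 min, then 2 uM Z-FR-AMC substrate added; reaction progress from fluorescence change between first and third reads (60 s).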
# Marburg entry inh = blocks Marburg virus binding to or entry into cells | Marburg virus pseudotyped entry inhibition, cell reporter; control for the full effect not named in the record; about a third of the inactives were read at about 46 µM | Potency, µM (top dose mostly 37.8 µM), for the others: at the top dose activity change, negative = inhibition, hits mostly inhibitors | hit rate 1.8% among 300,000 | AID 540276; active = well fitted inhibition curve with a large enough effect; inconclusive = small, poorly fitted or top-dose-only effect, or effect the other way; inactive = flat fitted curve, though single readings scatter; tested in HEK293 cells; about a fifth of its hits are not listed in these tables; further: on the % scale 0 is the no-effect control and ±100 the full control effect; luciferase read-out
# Starred values were filed as active, the others as inactive; ? = inconclusive; · = no result given; & = joins results of further samples; [ ] = remark or other dose. Unless noted, the call rests on the fitted dose curve; in most records, active means well fitted rising curve with a large enough effect; inconclusive means small, poorly fitted or top-dose-only effect; inactive means no such curve, though single readings can be large or run the other way. Potency means the concentration at half of the fitted maximal effect.
SMILES,Cruzain inh Det,Lassa entry inh,RE007 growth inh,SARS PLP yeast,StopGo reporter,NS1 inh,Cruzain noTriton,Marburg entry inh
COc1ccc(CCN2CC(C(=O)NCc3c(C)n[nH]c3C)CCC2=O)cc1 (stereo not drawn),·,10%,6%,1%,13%,2%,·,7%
Clc1ccc(Oc2cccc(/C=N/n3cnnc3)c2)cc1,3.2%,-7%,19%,-30%,?,-170%,-8%,?
CCc1ccccc1NC(=O)/C(=C/c1ccccc1)c1ccccc1,0.1%,4%,4%,-24%,?,-32%,0%,-25%
CCCc1cc(=O)[nH]c(SCC(=O)c2cc(C)n(C3CC3)c2C)n1,1.3%,-25%,-23%,5%,-24%,8%,-6%,14%
CCN(CC)CC(C)CNC(=O)CC(C(=O)N1CCc2ccccc21)n1ccnc1 (stereo not drawn),-1.2%,7%,-10%,-7%,15%,-4%,-9%,17%
O=C(Cc1ccc(Cl)cc1)NCC(c1cccs1)S(=O)(=O)c1ccc(F)cc1 (stereo not drawn),-4.6%,?,·,·,-12%,·,3%,·
Cn1cccc1/C=N/NC(=O)c1cc(-c2cccs2)nc2ccccc12,-9.1%,-5%,2%,2%,0%,26%,-20%,?
CNC(=O)c1cc2c(-c3ccccc3)nn(C)c2s1,·,-24%[46.1 µM],-4%,-11%,?,-7%,·,-14%[46.1 µM]
COc1ccc(C(C[N+](=O)[O-])n2nc(C)cc2C)cc1 (stereo not drawn),-0.3%,-1%,?,-88%,?,-61%,-4%,-5%
COC(=O)c1cc(NC(=O)c2sc3ccccc3c2Cl)cc(C(=O)OC)c1,-0.6%,-2%[46.1 µM],·,·,-26%,·,-7%,·
CCCOC(=O)c1ccc(NC(=O)Cc2csc(C)n2)cc1,-1.1%,16%[46.1 µM],·,·,4%,·,0%,4%[46.1 µM]
Cc1ccccc1NC(=S)NC(NC(=O)COc1ccccc1)C(Cl)(Cl)Cl (stereo not drawn),4.8%,-10%,-7%,?,-25%,17%,?,?
CSC(=S)NN=C(C)c1cccc(C)n1,·,?,?,·,5%,·,·,5µM*
COc1ccc(N2CCN(Cc3cc(OC)c(O)c([N+](=O)[O-])c3)CC2)cc1,-3.6%,-1%,37%,-3%,-18%,4%,4%,?
CCOC(=O)N1CCN(C(=O)/C=C/c2ccc(C(C)(C)C)cc2)CC1,·,-18%,-1%,1%,-3%,-23%,·,15%
O=[N+]([O-])c1cccnc1N1CCCCC1,2.4%,-5%,-16%,-7%,9%,-3%,-7%,-2%
O=C(c1cc2c(s1)CCCCC2)N1CCN(c2ncccn2)CC1,-3.0%,13%,-3%,1%,11%,-38%,-13%,-17%
Cc1ccc(S(=O)(=O)c2c(COC(=O)c3cccc(Cl)c3)c(-c3ccccc3)nn2C)cc1,6.1%,-2%,4%,-9%,-13%,10%,25µM*,4%
CCOc1cc(/C=C(\C#N)c2nc3ccccc3[nH]2)ccc1OC(C)C(=O)O (stereo not drawn),·,·,9%,-1%,-10%,10%,·,·
COc1ccc(OC)c(NC(=O)CSc2ccc(-c3cccs3)nn2)c1,-5.5%,2%[46.1 µM],·,·,-20%,·,7%,·
CCOC(=O)C(C(=O)OCC)=C1OC(=O)c2ccccc21,3.1%,1%,-1%,?,12%,-39%,?,-5%
CCc1ccc2[nH]c3nc(N/N=C/c4ccc(O)cc4O)nnc3c2c1,·,?,20%,?,-18%,8%,·,3.5µM*
CCOC(=O)CC1=NS(=O)(=O)c2ccccc2N1,2.1%,3%,-6%,4%,39%[activator],14%,-1%,18%[46.1 µM]
O=C1CCC(C(=O)N2CCCC(C(=O)c3ccc4c5c(cccc35)CC4)C2)=NN1 (stereo not drawn),·,·,-14%,0%,0%,4%,·,·
N#Cc1c(N)nc(SCC(=O)OCc2ccccc2)c(C#N)c1-c1ccco1,-12%,9%,23%,0%,5%,-37%,-23%,-13%
# The listing continues.
SMILES,Cruzain inh Det,Lassa entry inh,RE007 growth inh,SARS PLP yeast,StopGo reporter,NS1 inh,Cruzain noTriton,Marburg entry inh
COc1ccc(-c2noc(CSc3nnc(-c4ccncc4)n3-c3ccc(C)c(C)c3)n2)cc1,-5.2%,-14%[46.1 µM],·,·,-25%,·,-8%,?
C/C(=C1\SC(N2CCOCC2)=NC1=O)c1ccccc1,-0.8%,?,7%,1%,4%,9%,-3%,24%
Cc1ccc(N2CC(c3nc4ccccc4n3C)CC2=O)cc1 (stereo not drawn),·,·,9%,-2%,-6%,-7%,·,·
CC(Nc1ncnc2ccccc12)c1ccccc1 (stereo not drawn),·,?,0%,-8%,?,-30%,·,?
Cc1ccc(SCCN2CCC(O)CCC2=O)cc1 (stereo not drawn),·,·,-3%,3%,32%[activator],-3%,·,·
CCCN1Cc2cccc(C(=O)Nc3cc(C)cc(C)c3)c2C1=O,-0.6%,19%[46.1 µM],·,·,-14%,·,7%,-6%[46.1 µM]
COc1cc(CC(=O)Nc2ccccc2N2CCCCC2)cc(OC)c1OC,·,?,-4%,0%,-9%,·,·,?
O=c1[nH]c(C2CCN(S(=O)(=O)c3ccc4c(c3)OCCO4)CC2)nc2c1nnn2Cc1c(F)cccc1Cl,·,6%[46.1 µM],-7%,5%,0%,22%,·,16%[46.1 µM]
Fc1nc(F)c(F)c(NCCCNc2c(F)c(F)nc(F)c2F)c1F,·,?,-9%,-3%,?,·,·,?
CCOC(=O)C1CCCN(CCC(=O)Nc2cc(OC)ccc2OC)C1 (stereo not drawn),·,0%[46.1 µM],-11%,-1%,5%,-14%,·,-15%[46.1 µM]
O=C(Nc1cc2c3c(c1)CC(=O)N3CCC2)c1cccc(F)c1,·,5%,-1%,-1%,16%,·,·,20%
O=C(CSc1nnc(-c2ccncc2)n1Cc1ccccc1)Nc1nccs1,0.3%,-13%,9%,-2%,12%,-5%,5%,-2%
COc1cc(/C=C2\SC(N3CCc4ccccc4C3)=NC2=O)cc(OC)c1OC,-5.4%,9%,-4%,-5%,0%,4%,?,14%
O=C(NCc1ccc(F)cc1)C(=O)NCC1CCCN1S(=O)(=O)c1ccccc1 (stereo not drawn),·,?,7%,-3%,-13%,·,·,?
CC1CCN(C(=S)c2ccc(N(C)C)cc2)CC1,·,14%[46.1 µM],3%,0%,19%,0%,·,?
Cc1cc(C(=O)Nc2ccccn2)no1,1.2%,15%,-5%,1%,72%[activator],-2%,-9%,-2%
COc1ccc(C(=O)COC(=O)CCn2nnc(-c3cccs3)n2)cc1,0.4%,-3%,16%,-7%,10%,-8%,7%,26%
COc1ccccc1C1/C(=C(/O)c2ccc(Cl)cc2)C(=O)C(=O)N1CCN1CCOCC1 (stereo not drawn),2.4%,-11%,1%,-12%,-22%,-12%,4%,5%
CCn1ncc(C2=NOC(C(=O)N3CCN(c4ccccc4)CC3)C2)c1C (stereo not drawn),5.0%,?,-3%,5%,-21%,-15%,-5%,13%
CCN1C(=O)[C@H]2[C@@H](c3ccc(Cl)cc3)N3C(=O)CN(Cc4ccccc4)C(=O)[C@@]3(C)[C@H]2C1=O,·,·,17%,1%,6%,-8%,·,·
COc1ccccc1NC(=O)C(C)OC(=O)CCSc1ccc(F)cc1 (stereo not drawn),·,·,-5%,3%,-17%,·,·,-2%
CCn1cc(C(=O)N2CCN(c3ccc(OC)cc3)CC2)c(=O)c2cc(S(=O)(=O)N3CCOCC3)ccc21,-11%,11%&4%[46.1 µM],13%,1%,-7%&-5%,-13%,?,4%&2%[46.1 µM]
CCOC(=O)c1nc(Nc2ccc(N3CCOCC3)cc2)c2ccccc2n1,·,8%,-16%,0%,-14%,0%,·,?
CCCn1nc(NC(=O)C(C)C)c2cc3cc(OC)ccc3nc21,·,·,19%,-5%,10%,-3%,·,·
CCCCN(C)CCNC(=O)C1CCCN(S(=O)(=O)c2cccc3nsnc23)C1 (stereo not drawn),-21%,18%[46.1 µM],-9%,-8%,-9%&0%,6%,?,-4%[46.1 µM]

# Of the compounds above, these contain a cyano group.
SMILES,Cruzain inh Det,Lassa entry inh,RE007 growth inh,SARS PLP yeast,StopGo reporter,NS1 inh,Cruzain noTriton,Marburg entry inh
CCOc1cc(/C=C(\C#N)c2nc3ccccc3[nH]2)ccc1OC(C)C(=O)O (stereo not drawn),·,·,9%,-1%,-10%,10%,·,·
N#Cc1c(N)nc(SCC(=O)OCc2ccccc2)c(C#N)c1-c1ccco1,-12%,9%,23%,0%,5%,-37%,-23%,-13%

# Next part.
SMILES,Cruzain inh Det,Lassa entry inh,RE007 growth inh,SARS PLP yeast,StopGo reporter,NS1 inh,Cruzain noTriton,Marburg entry inh
CCOc1cc(C2NN=C(c3ccccc3)S2)ccc1OCc1ccc(F)cc1 (stereo not drawn),-25%,-5%,-29%,0%,22%,-13%,?,?
COc1ccc(N(CC(=O)NCc2ccccc2OC)S(=O)(=O)c2ccccc2[N+](=O)[O-])c(OC)c1,·,?,11%,0%,19%,13%,·,?
COc1ccccc1Nc1nc(C)c(C(=O)Nc2ccccc2)s1,·,?,-25%,-2%,3%,·,·,?
NC(=O)c1ccc(NC(=O)COC(=O)c2ccc([N+](=O)[O-])cc2)cc1,·,·,-19%,1%,-2%,4%,·,·
Nc1nc(=O)n(C2CCCCO2)cc1Br (stereo not drawn),·,12%,0%,·,-11%,·,·,17%
NC(=O)C1CCN(C(=O)C(=O)c2cn(CC(=O)N3CCCC3)c3ccccc23)CC1,·,·,-9%,0%,-5%,11%,·,·
CCn1c2ccccc2c2cc(/C=N/NC(=O)c3ccccc3C)ccc21,-21%,?,-3%,-36%,-9%,-11%,32µM*,?
Cc1ccc(-c2nn(-c3ccccc3)cc2C2CC(c3cccs3)=NN2C(=O)CCCC(=O)O)cc1 (stereo not drawn),-25%,?,-17%,7%,-19%,6%,?,-6%
COc1ccc(CNC(=O)CCSCc2ccccc2C)cc1,·,9%,37%,0%,-2%,·,·,23%[46.1 µM]
Cc1cc(C)c(/C=C/c2onc(C)c2S(=O)(=O)N2CCC(C(=O)N(C)Cc3ccccc3)CC2)c(C)c1,-5.3%,?,·,·,-14%,·,4%,·

# Rows were taken by chance; about 4.6% have a hit in one of these screens.
